Screening data as filed in PubChem BioAssay.
GLA inh pH 4.5: inhibitors of human alpha-galactosidase A at pH 4.5. P06280. purified enzyme, 4-MU-alpha-Gal fluorescence, pH 4.5. activity change, negative = inhibition, % at 105 µM. 230,000 tested, under 10 active; inconclusive = small, poorly fitted or top-dose-only inhibition, or a rising curve; inactive = flat fitted curve, though single readings scatter; no compound was filed as active;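 also: 0% = full activity with enzyme and -100% = basal without enzyme; dose as in the result columns while the protocol names 77 µM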
Rango complex inh: inhibitors of Rango-importin beta complex formation; Q14974; Rango CFP/YFP FRET sensor + importin beta, 45 min; Potency, µM (top dose mostly 92.2 µM), without a hit: at the top dose inhibition of complex formation; hit rate 0.031% among 340,000; AID 540263; active = rising FRET ratio curve, often small or poorly fitted; inconclusive = mostly compound fluorescence or quenching in the first reads; inactive = flat curves in all reads;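 also: potency is read from the fitted curve at half-maximal effect; 0% = DMSO wells and 100% = buffer wells lacking importin beta; nearly all actives have a fitted effect of over 15% in size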
Target sequence (Q14974 whole entry, looked up): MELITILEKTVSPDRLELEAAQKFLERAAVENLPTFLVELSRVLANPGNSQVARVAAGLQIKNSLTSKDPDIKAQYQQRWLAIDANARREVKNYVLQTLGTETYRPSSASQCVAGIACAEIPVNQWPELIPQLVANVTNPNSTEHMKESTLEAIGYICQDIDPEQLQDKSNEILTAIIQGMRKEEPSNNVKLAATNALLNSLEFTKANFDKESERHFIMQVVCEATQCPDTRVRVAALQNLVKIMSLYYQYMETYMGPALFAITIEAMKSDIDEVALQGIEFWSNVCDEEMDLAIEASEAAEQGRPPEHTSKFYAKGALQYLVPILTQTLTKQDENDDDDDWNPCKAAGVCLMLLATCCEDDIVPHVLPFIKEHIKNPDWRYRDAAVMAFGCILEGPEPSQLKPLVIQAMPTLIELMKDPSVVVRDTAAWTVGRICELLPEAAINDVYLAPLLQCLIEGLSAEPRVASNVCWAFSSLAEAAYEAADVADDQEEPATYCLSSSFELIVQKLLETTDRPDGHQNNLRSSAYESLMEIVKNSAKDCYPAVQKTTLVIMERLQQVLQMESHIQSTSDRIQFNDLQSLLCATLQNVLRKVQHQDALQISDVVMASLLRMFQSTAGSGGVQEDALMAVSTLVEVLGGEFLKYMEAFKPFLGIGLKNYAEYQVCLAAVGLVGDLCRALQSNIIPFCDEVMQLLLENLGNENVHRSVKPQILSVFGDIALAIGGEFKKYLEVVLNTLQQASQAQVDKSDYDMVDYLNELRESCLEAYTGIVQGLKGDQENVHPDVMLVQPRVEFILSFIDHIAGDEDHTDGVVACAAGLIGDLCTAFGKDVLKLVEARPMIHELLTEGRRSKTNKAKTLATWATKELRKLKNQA
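FRET biosensor Rango (snurportin 1 IBB between N-terminal EYFP and C-terminal Cerulean), 50 nM in PBS/1 mM DTT/0.02% Tween-20/0.1% BSA, preincubated 5 min RT with compound; 0.125 microM importin beta added, 45 min RT, CFP/YFP FRET ratio read.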
Rango release inh: inhibition of RanGTP-driven Rango-importin beta dissociation | O95149+P62826 | Biochemical FRET Rango-importin beta, RanGTP-induced dissociation | Potency, µM (doses to about 46.1 µM), inactives show top-dose activity change, negative = inhibition | hit rate 0.071% among 340,000 | AID 540253; active means falling FRET ratio curve, often poorly fitted, with flat reads before Ran was added; inconclusive means other falling curves, or compound fluorescence or quenching; inactive means flat or rising ratio curve;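 also: potency is read from the fitted curve at half-maximal effect; % of control where 0% means no effect; nearly all actives have a fitted effect of over 45% in size; -100% = wells without RanGTP and RCC1; the record marks most hits as doubtful in a second field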
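Rango/importin beta premix (0.1/0.25 uM final), PBS + 1 mM DTT + 0.02% Tween-20 + 0.1% BSA; cpd 5 min RT; FRET pre-read; + RanGTP-RCC1 (0.6 uM Ran, 2 mM GTP, 0.2 uM RCC1); 45 min RT; FRET post-read, ex 430, em 486/530 nm.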
miR-21 FLuc: miR-21 reporter, rising signal. HeLa miR-21 FLuc reporter, luciferase, 48 h. Potency, µM (titrated, usually from 38.3 µM), for the others: at the highest dose reporter change, positive = more light. 340,000 tested, under 10 active. AID 2288; active = well fitted rising curve with a large enough effect; inconclusive = small, poorly fitted or top-dose-only effect; inactive = no such curve, though single readings can be large or run the other way;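 also: % of control where 0% means no effect; miR-21 action dims this reporter so a rising signal means less miR-21 action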
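HeLa cells stably expressing CMV-driven firefly luciferase with a downstream miR-21 binding sequence, endogenously expressing miR-21, were treated with titrations (up to about 40uM final) for 48 hours at 37 degree Celsius. Luciferase luminescence was read after lysis.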
* hit, by the source's call; u = inconclusive; x = not tested or not shown; & = joins results of further samples; [ ] = remark or other dose. An excerpt; count on the stated rates, not on these rows.

SMILES	GLA inh pH 4.5	Rango complex inh	Rango release inh	miR-21 FLuc
Cc1cccc(Nc2nc(-c3ccccc3)cs2)n1	x	0.9%	13%	-40%
CC(=O)c1ccc(NC(=O)C2CCCN(S(=O)(=O)c3ccc(-n4cnnn4)cc3)C2)cc1 (stereo not given)	x	-0.2%	-7%	-1%
Cc1cc(C)c(NC(=O)C2CCCCN2C)c(C)c1 (stereo not given)	-1	-0.8%	-3%	-1%
CCOC(=O)C(NC(=O)Nc1ccc(F)cc1F)(Oc1ccc(F)cc1)C(F)(F)F (stereo not given)	0	6.4%	-11%	-2%
Cn1c(=O)c2c(nc(N/N=C/c3ccc(OC(=O)c4ccco4)cc3)n2Cc2ccccc2)n(C)c1=O	-19	-1.1%	-21%	1%
O=C(Nc1cccc2cccnc12)c1ccccc1Cl	x	-2.2%	13%	x
Cc1ccc(NS(=O)(=O)c2c(C)[nH]c(C)c2C(=O)N2CCCC2)cc1	x	0.3%	1%	2%
Cc1ccc(N=C2NC(=O)CS2)c(C)c1	7	-0.2%	1%	1%
COc1ccc(C(=O)N2CCN=C2SCc2cccnc2)cc1OC	1	-2.3%	6%	-18%
Cc1ccc2[nH]cc(CCNC(=O)C3CCCO3)c2c1 (stereo not given)	x	u	2%	-3%
CCCCn1nnnc1NCc1ccc(OC)c(OC)c1OC	7	u	u	-8%
COc1ccc(/C=C/C(O)=C2/C(=O)NC3(C)CC2c2ccccc2O3)c(OC)c1OC (stereo not given)	-4	u	-21%	6%
CCC(C(=O)NCC1CCCO1)N(Cc1ccccc1)C(=O)CNS(=O)(=O)c1ccccc1 (stereo not given)	x	-3.5%	-6%	-1%
Cc1cc(NC(=O)CN(C)CC(=O)Nc2ccc(F)c(F)c2F)no1	x	-0.4%	17%	x
CSCC[C@H](NC(=O)c1ccco1)c1nnc2ccccn12	x	-0.6%	2%	2%
C=CCn1c(CNC(=O)CCC)nc2ccccc21	x	-5.1%	0%	x
CC1=NN(C(C#N)c2ccccc2C)C(C)(C)C1 (stereo not given)	-15	3.1%	-1%	-4%
O=C(Cc1ccccc1)NCCN1CCCC1	-7	-3.7%	-7%	-2%
CNS(=O)(=O)c1cccc(C(=O)NCC(c2cccs2)N(C)C)c1 (stereo not given)	1	3.7%	10%	-3%
CCOC(=O)Nc1ccc2c(C)cc(=O)oc2c1	4	-0.3%	-1%	-57%
O=C(c1cc(C2CC2)nn1-c1ccccc1)N1CCN(S(=O)(=O)c2ccccc2)CC1	x	8.2%	-10%	x
Cc1ccc(C2c3[nH]c4ccccc4c3C[C@H]3C(=O)N(c4ccccc4C(=O)N4CCC[C@H]4C(=O)O)C(=O)N23)cc1 (stereo not given in full)	x	u	-13%	0%
O=C(O)c1ccc2c(c1)ncn2C1CCCC1	-2	-0.3%	23%	-40%
CCC(C)NC(=O)CSc1nc2ccccc2c(=O)n1-c1c(C)n(C)n(-c2ccccc2)c1=O (stereo not given)	2	3.2%	14%	-2%
O=C(C1COc2ccccc2O1)N1CCn2c(nc3ccccc32)C1 (stereo not given)	1	-0.2%	3%	-4%
(list continues)
SMILES	GLA inh pH 4.5	Rango complex inh	Rango release inh	miR-21 FLuc
O=C(CSc1nnc(-c2cccnc2)n1Cc1ccco1)c1ccc2ccccc2c1	1	2.4%	20%	-11%
CCn1nc(C)cc1-c1nnc(SCC(=O)Nc2ccccc2)n1CCCOC	0	-1.3%	0%	4%
COc1ccc(-c2nnc(-c3ccc(N)cc3)o2)cc1	3	0.2%	0%	-48%
Cc1cc(NC(=O)c2cc(-c3ccccc3Cl)nc3ccccc23)no1	x	3.5%	8%	5%
CC1CCc2c(sc3nc(SCC(=O)O)n(-c4ccccc4)c(=O)c23)C1 (stereo not given)	3	4.7%	-13%	-11%
CCOC(=O)c1nn(-c2cccc(C)c2)c2nc(-c3ccccc3)c(C#N)c(=O)n12	8	-0.6%	-11%	-4%
CCOC(=O)C1CCNC(=O)C1=O (stereo not given)	x	-5.2%	5%	x
COc1ccc(O[C@H]2C=C[C@@H](c3ccccc3)O[C@@H]2COC(=O)CC/C(C)=N/OC[C@@H](O)[C@H]2O[C@@H]3OC(C)(C)O[C@@H]3[C@H]2O)cc1	-4	x	x	-2%
O=S(=O)(NC1CCCCC1)c1cccc2nsnc12	x	0.4%	-13%	5%
Cn1nc(-c2ccc(Cl)cc2)c2cc(C(=O)N3CCCC3)sc21	2	-4.1%	10%	1%
O=C(COc1ccc([N+](=O)[O-])cc1)Nc1ccc(C(=O)Nc2ccccc2C(=O)O)cc1	-6	-0.6%	9%	1%
Cc1ccc2nc(-c3ccc(NC(=O)CSc4ccccc4)cc3)[nH]c2c1	1	-1.4%	-1%	-32%
O=C(Cn1cnc2scc(-c3ccc(F)cc3)c2c1=O)NCC(c1ccco1)N1CCCC1 (stereo not given)	x	-2.4%	2%	x
COCCN(C(=O)/C=C/c1ccccc1)c1nnc(-c2cccnc2)s1	4	1.4%	1%	-6%
COC(=O)c1cc(=O)c2ccc(OC)cc2o1	x	-2.0%	-15%	0%
Cc1ccc(N=Cc2nc(-c3ccco3)oc2O)cc1	1	u	u	-29%
CCOC(=O)Cn1c(=NC(=O)CSC(C)=O)sc2cc(F)ccc21	-3	0.2%	-5%	-3%
C[C@@H]1CC(=O)[C@H]2CC(CO)=CCC[C@@H]2[C@@]1(C)CC/C(=C/CO)CO	x	1.8%	0%	x
CN(CCC1CCOCC1)C(=O)c1cc(COc2c(F)cccc2F)on1	x	-0.8%	2%	-31%
Cn1c(SCC(N)=O)nnc1-c1cnccn1	-1	2.7%	0%	1%
CCOCCCNC(=S)N1CCC(NC(=O)c2ccco2)CC1	6	-0.9%	-6%	5%
COc1ccc(NC(=O)CSc2nccn2Cc2ccc(F)cc2)c(OC)c1	x	-1.2%	9%	-1%
CCNc1nc(NCC)nc(ON=C(C)C)n1	8	x	x	0%
CCOc1ccc(/C=N/Nc2cc(=O)n(C)c(=O)n2C)cc1	-6	0.5%	-13%	1%
CCOc1ccc(CCNC(=O)c2ccccc2OCc2c(C)noc2C)cc1OCC	x	-0.5%	5%	x
(continued)
SMILES	GLA inh pH 4.5	Rango complex inh	Rango release inh	miR-21 FLuc
CCN(C(=O)/C=C/c1ccc(OC)cc1)C1CCS(=O)(=O)C1 (stereo not given)	x	4.7%	-14%	x
O=C(O)c1ccc(CSc2nc3ccccc3c(=O)n2-c2ccccc2)cc1	x	-2.7%	16%	-19%
CCCCN(C(=O)CSc1nnc(-c2ccccc2)o1)c1c(N)n(CCC)c(=O)[nH]c1=O	x	-6.1%	8%	x
COc1ccc(Cc2nnc(SC)[nH]c2=O)cc1OC	-9	u	3%	5%
CC(NC(=O)c1ccccc1SCC(=O)N1CCCC1)c1ccccc1 (stereo not given)	x	-1.1%	7%	x
COc1ccccc1Cn1c(=S)[nH]c2cc(C(=O)NCCCN3CCOCC3)ccc2c1=O	x	0.0%	-13%	0%
CCOC(=O)c1ccccc1NC(=O)COC(=O)CCC(=O)c1ccc(C)cc1	x	-1.4%	-4%	x
CC1Cc2ccccc2N1C(=O)Cn1nnc(-c2ccccc2NC(=O)C2CCC2)n1 (stereo not given)	-6	1.0%	-12%	-2%
O=C(NC1CCS(=O)(=O)C1)C1CCCC1 (stereo not given)	x	-2.7%	4%	x
CN(C)c1ccc(CNCCC(Cc2ccccc2)c2ccco2)cc1 (stereo not given)	-10	-2.4%	-2%	u
COc1ccccc1COC(=O)Nc1c(C)nn(C)c1Cl	-20	0.0%	1%	-1%
COCCNC(=S)Nc1ccc2nsnc2c1	0	u	-8%	-19%
COc1ccc(NC(=O)c2cncc(Br)c2)cc1S(=O)(=O)N1CCCCC1	-13	-0.8%	-10%	21%
Cc1cc(C)cc(-n2ncc3c2CCCC3NC(=O)c2cc(C)n(C)n2)c1 (stereo not given)	x	-0.4%	20%	1%
CCN(CC)c1ccc(N=CN2CCOCC2)cc1	x	4.6%	-14%	-3%
CCC(=O)Nc1ccc2c(c1)ncn2CCc1ccccc1	x	1.2%	16%	-34%
O=C(Nc1ccc(Cl)cc1)[C@@H]1[C@@H]2C(=O)N(c3ccc4ccccc4c3)C(=O)[C@@H]2[C@H]2C=CC=NN21	-4	-1.2%	-18%	-7%
O=C(COc1ccc(Cl)cc1)NCc1nnc(SCC(=O)Nc2ccccc2F)o1	4	-0.2%	-6%	-2%
c1ccc(CNc2cncnc2)cc1	x	-4.4%	1%	-2%
CCN(CC)C(=O)c1[nH]cnc1C(=O)Nc1ccc(C)cc1	x	0.5%	-2%	x
C=CCSc1nnc(-c2c[nH]c3ccccc23)n1CCOC	-1	-1.6%	-1%	-7%
CC1CC(=O)Nc2ccccc2N1S(=O)(=O)c1cccc(Cl)c1 (stereo not given)	4	-2.0%	-13%	-11%
CC1C(c2ccccc2)N(C)C(c2ccccc2)C(C)C1(O)C#Cc1ccccc1 (stereo not given)	-19	1.6%	11%	6%
COc1ccc(CCCN2CCC(CN3C(=S)NC[C@@H]3Cc3ccccc3)CC2)cc1OC	x	0.7%	6%	x
CCCOc1cccc(C2/C(=C(/O)c3ccccc3)C(=O)C(=O)N2CCN(C)C)c1 (stereo not given)	-9	-4.7%	-9%	-4%
Remaining list, next part:
SMILES	GLA inh pH 4.5	Rango complex inh	Rango release inh	miR-21 FLuc
O=C(CN1CCCN(Cc2ccc(F)cc2Cl)C1=O)NC1CCCCCCC1	5	-1.8%	1%	-3%
CC(=O)Nc1nnc(S(N)(=O)=O)s1	3&-2&3&-6	-0.5%	-1%	-3%
CCC(C)N1C(=O)c2ccccc2C1C(=O)NC1CCCCCC1 (stereo not given)	4	-1.4%	-2%	1%
C=CCOc1ccc(C(=O)Nc2ccc3c(c2)n(C)c(=O)n3C)cc1	x	-0.5%	1%	-1%
Cc1cnc(C(=O)Nc2ccccc2-c2nnn(CC(=O)NC3CCCC3)n2)cn1	5	1.4%	5%	1%
O=C(CSc1nn(-c2ccc(F)cc2)c(=S)s1)NCC1CCCO1 (stereo not given)	4	-0.9%	1%	4%
COc1c(Br)cc2c(C)c(C(=O)N3CCOCC3)oc2c1Br	-1	0.2%	12%	-16%
O=S(=O)(Nc1ccc(Cl)cc1)c1cccc2cccnc12	x	-1.2%	-7%	-3%
O=C(Nc1cccc(F)c1)Nc1ccc(Cl)cn1	x	-1.2%	-16%	-27%
CC(NC(=O)CN1CCc2ccccc21)c1ccccc1 (stereo not given)	-4	-3.7%	-1%	-8%
Nc1cc([N+](=O)[O-])ccc1O	0	-2.4%	-6%	1%
COc1ccc([C@H]2/C=C\CN(C(=O)C3CCCC3)[C@@H](C)C(=O)N2Cc2ccc(F)cc2)cc1	x	0.8%	0%	x
Cc1ccc2[nH]c3c(=O)n(Cc4ccco4)cnc3c2c1	1	4.0%	18%	-10%
CN(C)S(=O)(=O)c1ccc2oc(SCC(N)=O)nc2c1	13	3.9%	-6%	-1%
O=C(NN=C1CCCC1)c1ccc([N+](=O)[O-])cc1	2[21.1 µM]	0.3%	-13%	-2%
O=C(NCCc1cscn1)C1CCC(=O)N(Cc2ccc(Cl)cc2)C1 (stereo not given)	x	-0.6%	-1%	-2%
CN(C(=O)c1ccc(NC(=O)Cc2cccc(NC(=O)C3CCCN(S(=O)(=O)c4cccc([N+](=O)[O-])c4)C3)c2)cc1)C1CC1 (stereo not given)	x	-2.5%	28%	x

Looked up by compound from the entries so far:
SMILES	GLA inh pH 4.5	Rango complex inh	Rango release inh	miR-21 FLuc
O=C(CSc1nn(-c2ccc(F)cc2)c(=S)s1)NCC1CCCO1 (stereo not given)	4	-0.9%	1%	4%
Cc1ccc2[nH]c3c(=O)n(Cc4ccco4)cnc3c2c1	1	4.0%	18%	-10%
O=C(CN1CCCN(Cc2ccc(F)cc2Cl)C1=O)NC1CCCCCCC1	5	-1.8%	1%	-3%
Nc1cc([N+](=O)[O-])ccc1O	0	-2.4%	-6%	1%
O=C(NCCc1cscn1)C1CCC(=O)N(Cc2ccc(Cl)cc2)C1 (stereo not given)	x	-0.6%	-1%	-2%
